Source: PubChem (several laboratories)
WNV NS2B-NS3 inh = inhibitors of West Nile virus NS2B-NS3 protease; P06935; WNV NS2B-NS3 protease, fluorogenic substrate Ex360/Em465; hits give low values; z-score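 (tested at a level between 10 and 100 µM)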; 65,000 compounds, 0.18% hits;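 active = z-score at -3 or under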;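 note: score is relative to mean and spread of the compound wells of a plate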
Target sequence (P06935 1371-1501 limits assumed): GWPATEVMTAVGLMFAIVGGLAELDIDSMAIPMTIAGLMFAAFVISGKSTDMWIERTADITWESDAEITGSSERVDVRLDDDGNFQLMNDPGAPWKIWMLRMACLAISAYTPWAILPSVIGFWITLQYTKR
Target sequence (P06935 1502-1679 limits assumed): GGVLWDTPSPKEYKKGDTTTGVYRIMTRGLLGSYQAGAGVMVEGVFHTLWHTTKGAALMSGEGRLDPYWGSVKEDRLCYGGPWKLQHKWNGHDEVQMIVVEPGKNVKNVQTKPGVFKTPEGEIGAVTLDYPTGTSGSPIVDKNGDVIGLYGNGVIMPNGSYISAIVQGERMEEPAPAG
Hsc70 = Hsc70 inhibitors, probe displacement, primary screen, biochemical, fluorescence polarization (AID 568); Hsc70 fluorescence polarization, probe displacement; higher % means a stronger effect; strong numbers were not always called active; 83,000 tested, under 10 active; one-dose displacement, % at 20 µM; IC50 in µM for titrated hits;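 active = displacement above 50% without optical interference and an IC50 on retest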;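 note: ATPase domain with a fluorescein-tagged ATP probe; 0% = vehicle and 100% = excess ADP; read after one hour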
MT1-MMP promoter = inhibitors of MT1-MMP promoter transcription, cell-based, luciferase reporter, luminescence (AID 618); 87,000 compounds, 0.62% hits; MT1-MMP promoter luciferase reporter cells, luminescence; calls from a first round at 10 µM; hits with a dose series show EC50 in µM;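 active = over half of the reporter light lost at 10 µM or EC50 under 50 µM; inactive = the rest and hits that failed the dose series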;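 note: actives suppress MT1-MMP promoter-driven transcription so potencies describe inhibitors; HT1080 fibrosarcoma cells; overnight exposure; toxic or luciferase-blocking compounds were not removed from the actives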
* = called active by the depositor; i = inactive; . = not tested or not shown. Only part of the results is shown; rates above refer to the full screens.

SMILES	WNV NS2B-NS3 inh	Hsc70	MT1-MMP promoter
CCC(C)(C)n1nnnc1C(c1cc2cc(C)cc(C)c2[nH]c1=O)N1CCN(Cc2ccc3c(c2)OCO3)CC1 (stereo not given)	.	0.3%	i
COc1ccc(CNC(=O)c2c(C)cc(=O)oc2C)cc1OC	0.15	3.1%	i
CC1(C)CC(=O)C(C(=O)/C=C/NCCc2ccccc2)C(=O)C1	.	4.6%	i
O=C(CSc1nnc2scc(-c3ccc(F)cc3)n12)NCc1ccco1	0.88	-3.5%	i
CC(=O)Nc1cccc(-c2nc3ccccc3c(=O)o2)c1	1.8	1.3%	i
CCC(C)N(CCNC(=O)CC1Oc2ccc(C)cc2NC1=O)C1CCCCC1 (stereo not given)	0.39	-7.0%	i
COC(=O)c1ccc(Oc2nc(C)cc(Oc3ccccc3)n2)cc1	0.26	2.6%	i
CCOC(=O)c1cnc2c(C(=O)OC)cccc2c1NCCN1CCOCC1	1.9	-1.4%	i
O=C(c1ccc(CNc2c(N3CCOCC3)c(=O)c2=O)cc1)N1CC=C(c2ccccc2)CC1	-0.68	-3.1%	i
COc1ccc(C(=O)CSc2nnc(-c3ccco3)n2C)cc1	-0.03	-8.8%	i
CCCCOCC(O)CN1CCN(C(C)=O)CC1 (stereo not given)	1.4	2.3%	i
Oc1ccccc1C1N=C(c2ccccc2)NC(c2ccccc2)=N1	.	6.1%	i
Cc1ccccc1C(=O)NC1CCS(=O)(=O)C1 (stereo not given)	.	-1.4%	i
O=C(Nc1ccccc1C(=O)O)c1cccc(NC(=O)c2ccc(Br)o2)c1	-0.38	-1.0%	i
CC(C)Nc1nc(NC(C)C)nc(N(C)n2cnnc2)n1	0.05	-1.0%	i
CC(=O)c1ccc(NC(=O)c2ccn[nH]2)cc1	-0.99	-5.9%	i
C=CCn1cc(C(=O)NCC2CCCO2)c(=O)c2cc(S(=O)(=O)N3CCCCCC3)ccc21 (stereo not given)	0.19	-2.3%	i
Nc1nnc(CCCCc2cccs2)o1	0.02	-0.3%	i
O=C(O)C1CCCCC1C(=O)Nc1ccccc1Cl (stereo not given)	.	4.3%	i
O=[n+]1cc(-c2ccc(F)cc2)n([O-])c2c1CCC2	-0.19	6.9%	i
O=C(Nc1ccc(NC(=O)c2cccs2)cn1)c1ccco1	1.1	1.6%	i
Cc1noc(C)c1C(=O)OCC(=O)c1cc(C)n(Cc2ccccc2Cl)c1C	0.55	0.3%	i
Cc1ccc(S(=O)(=O)Nc2ccc3ncccc3c2)cc1	0.09	5.7%	i
COc1ccc2nc(NC(=O)CSc3nnc(-c4ccoc4C)n3C)sc2c1	-0.98	-6.9%	i
COc1ccc(NC(=O)CSc2nc(C)c3c(c2C#N)CCCC3)cc1	.	3.2%	i
c1cc2c3c(cccc3c1)NC1(CCCCC1)N2	.	0.9%	i
C=CCn1c(N(C)C)nc2c1c(=O)[nH]c(=O)n2C	-1.4	1.5%	i
COC(=O)CCc1c(C)nn(-c2ccccc2)c1C	1.3	-1.2%	i
CCOC(=O)Nc1ccc(S(=O)(=O)Nc2nc(C)cc(C)n2)cc1	.	-1.3%	i
O=C(Nc1ccc(Cl)cc1)NC1CCCC1Cc1ccco1 (stereo not given)	-4.8*	-0.1%	i

2 successive compounds already listed, quoted:
SMILES	WNV NS2B-NS3 inh	Hsc70	MT1-MMP promoter
CC(=O)c1ccc(NC(=O)c2ccn[nH]2)cc1	-0.99	-5.9%	i
C=CCn1cc(C(=O)NCC2CCCO2)c(=O)c2cc(S(=O)(=O)N3CCCCCC3)ccc21 (stereo not given)	0.19	-2.3%	i

Just Hsc70 and MT1-MMP promoter, for 4 of the compounds above:
smiles	Hsc70	MT1-MMP promoter
COc1ccc(C(=O)CSc2nnc(-c3ccco3)n2C)cc1	-8.8%	i
CCCCOCC(O)CN1CCN(C(C)=O)CC1 (stereo not given)	2.3%	i
Oc1ccccc1C1N=C(c2ccccc2)NC(c2ccccc2)=N1	6.1%	i
Cc1ccccc1C(=O)NC1CCS(=O)(=O)C1 (stereo not given)	-1.4%	i

Remaining list, next part
SMILES	WNV NS2B-NS3 inh	Hsc70	MT1-MMP promoter
CN(C(=O)C1CCCO1)c1nnc(-c2cnccn2)s1 (stereo not given)	-1.7	-4.5%	i
CCc1[nH]nc2c1C(C(C)C)C(C#N)=C(N)O2 (stereo not given)	0.8	7.6%	i
CCOc1ccc(C2/C(=C(/O)c3ccc(F)cc3)C(=O)C(=O)N2CCCN(C)C)cc1 (stereo not given)	0.43	-0.1%	i
Cn1c(=O)c(NCCO)c2c3c(cccc31)C(=O)c1ccccc1-2	-1.2	152%	i
COCCn1c(SCC(=O)Nc2ncc(C)s2)nc2sc3c(c2c1=O)CCC3	-0.42	-0.1%	i
CCOC(=O)c1csc(NC(=O)c2ccc(S(=O)(=O)N(CC)CC)cc2)n1	-0.68	-4.4%	i
Cc1cc(NC(=O)CSc2nnc(COc3cccc(C)c3C)n2C)no1	0.09	-2.6%	i
COc1ccc(NC(=O)Cc2nnc(SCC(=O)Nc3cc(C)ccc3OC)n2C)cc1	0.55	2.8%	i
COc1cccc(/C=N/n2c(SC)nnc2-c2ccccc2)c1OC	-1.2	2.1%	i
CCN1CCN(c2c(Cl)cccc2NC(=O)c2ccco2)CC1	-0.75	2.8%	i
Cc1ccc(NC(=O)Cn2nc(C)c3ccccc3c2=O)c(C)c1	-0.56	-4.3%	i
O=c1c2[nH]c3ccc(F)cc3c2ncn1C1CCCCC1	-0.91	5.1%	i
CC1(C)C/C(=C(/C#N)C(N)=O)CCO1	0.47	-5.2%	i
CC1=CC(C)(C)Nc2ccc(OC(=O)c3cccnc3)cc21	-0.06	3.0%	i
CCOC(=O)Cn1c(=N)n(Cc2ccccc2F)c2ccccc21	1.2	-3.0%	i
CCc1ccc2c(c1)C1(NN=C(c3ccc(C)cc3)S1)C(=O)N2 (stereo not given)	.	-3.5%	i
O=C1CC(N2CCN(c3nc4ccccc4s3)CC2)C(=O)N1Cc1cccs1 (stereo not given)	-0.88	1.7%	i
CN(NS(=O)(=O)c1ccccc1)c1nc2ccccc2nc1C(F)(F)F	.	5.4%	i
Cc1cc(N2CCOCC2)nc(SCC(=O)c2ccc(Cl)cc2)n1	0.19	0.8%	i
CC(=O)c1cccc(NC(=O)c2oc(C)nc2C)c1	-0.28	6.3%	i
CCOC(=O)c1ccccc1NC(=O)c1cccc2c1C(=O)N(C1CCN(C(=O)OCC)CC1)C2	-0.24	0.7%	i
Cc1cc(NC(=O)c2cc(-c3cccs3)on2)no1	1.7	2.0%	i
COc1ccc(C(=O)NCC(=O)OCC(=O)Nc2c(C)n(C)n(-c3ccccc3)c2=O)cc1	.	8.2%	i
O=C(c1cn(-c2ccccc2)nc1-c1ccccc1)n1nnc2ccccc21	.	-1.3%	i
COC(=O)c1cc(NC(=O)CSc2nc(C)cc(=O)[nH]2)cc(C(=O)OC)c1	0.58	0.8%	i
CCOC(=O)C1CCN(C(=O)C(=O)N2CCC(C(=O)OCC)CC2)CC1	.	-0.3%	i
O=C(CSc1nc2ccccc2c(=O)[nH]1)N1CCCCCC1	-0.55	-0.7%	i
CCNC(=O)NC(=O)COc1ccccc1C#N	-0.01	0.2%	i
CCc1ccccc1NC(=O)CSc1nnc([C@@H]2CCCN2C(=O)OC(C)(C)C)o1	-1	-0.3%	i
CCC(C)n1cnc2c(c1=O)c1nc3ccccc3nc1n2Cc1ccc2c(c1)OCO2 (stereo not given)	-1.3	3.1%	i

Brought forward from above: 4 compounds, followed by the next part.
SMILES	WNV NS2B-NS3 inh	Hsc70	MT1-MMP promoter
O=C(CSc1nc2ccccc2c(=O)[nH]1)N1CCCCCC1	-0.55	-0.7%	i
CCNC(=O)NC(=O)COc1ccccc1C#N	-0.01	0.2%	i
CCc1ccccc1NC(=O)CSc1nnc([C@@H]2CCCN2C(=O)OC(C)(C)C)o1	-1	-0.3%	i
CCC(C)n1cnc2c(c1=O)c1nc3ccccc3nc1n2Cc1ccc2c(c1)OCO2 (stereo not given)	-1.3	3.1%	i
Cc1csc(=N)n1-c1ccc(Cl)cc1	-1.3	0.6%	i
Cc1ccc(N2C(=O)CC(Cn3nc(C)cc3C)C2=O)cc1 (stereo not given)	-1.3	-3.6%	i
c1ccc(-c2[nH]ncc2-c2nc3ccccc3[nH]2)cc1	1.5	4.2%	i
NC(=O)CSc1nc(-c2ccccc2Cl)ns1	-0.58	-3.0%	i
O=C(O)c1ccc(-c2ccccc2C(F)(F)F)o1	-0.6	5.3%	i
Cc1nc2ccccc2c(=O)n1NC(=O)c1c(O)c2ccccc2n(C)c1=O	-0.85	5.8%	i
CSc1ccccc1NC(=O)c1noc2c1CCC2	-1.2	-5.6%	i
NC(=O)CCS(=O)(=O)c1ccccc1	-0.63	-1.7%	i
CC(=O)C1=C(O)C(=O)N(Cc2ccco2)C1c1ccc2c(c1)OCO2 (stereo not given)	-0.61	-1.6%	i
CC12Cc3ccc4ccccc4c3C=C1C[N+](C)(C)C2 (stereo not given)	.	-4.3%	i
CCOC(=O)N1CCN(C(=O)CSc2ccc(Cl)cc2)CC1	0.28	0.2%	i
CCCCn1c(CCC)nc([N+](=O)[O-])c1Sc1ccc(Cl)cn1	.	-0.8%	i
O=C(NCCCN1CCOCC1)C1(c2ccccc2)CCOCC1	1.3	2.5%	i
CCC(Oc1ccccc1)C(=O)N1CCN(C(=O)C(CC)Oc2ccccc2)CC1 (stereo not given)	.	-0.7%	i
CCn1c(SCC(=O)c2c(N)n(C)c(=O)n(C)c2=O)nc2sc(C)c(C)c2c1=O	1.3	1.2%	i
CCc1nnc(NC(=O)c2cccc(NC(=O)C(C)C)c2)s1	.	1.3%	i
CCOc1ccccc1CNS(=O)(=O)c1ccc2c(c1)oc(=O)n2C	-1.6	-1.0%	i
O=C1NC(c2ccccn2)Nc2sc3c(c21)CCC3 (stereo not given)	0.05	0.1%	i
CCCC(=O)Nc1ccc(-c2nc3cc(C)c(C)cc3o2)c(O)c1	-1.2	-7.6%	i
Cc1cc(=O)n2c3c(cccc13)CCC2	-0.73	-1.1%	i
Nn1c(SCC(=O)N2CCOCC2)nnc1-c1ccco1	.	-1.7%	i
COC(=O)c1c(NC(=O)c2ccco2)sc(C(=O)Nc2ccc(F)cc2)c1C	0.62	-4.6%	i
Cc1cc(NC(=O)CCCC(=O)Nc2ccc(F)cc2)no1	0.13	-3.3%	i
O=C(OCC(=O)N1CCN(C(=O)COC(=O)c2ccncc2)CC1)c1ccncc1	0.81	-4.3%	i
Cc1cc(C)c2c(n1)sc1c(=O)n(Cc3ccccc3Cl)nnc12	.	-2.1%	i
Cc1csc(SCC(=O)NCc2cccs2)n1	0.88	-10%	i
COC(=O)c1ccc2c(=O)[nH]c(CN3c4ccccc4CC3C)nc2c1 (stereo not given)	0.6	-7.1%	i
CCN1C(c2ccccc2)C(C)C(=O)C(C)C1c1ccccc1 (stereo not given)	.	6.4%	i
COC(=O)c1cc(-c2ccccc2)n(CC(=O)O)c1C	-0.17	4.3%	i
Cn1cnnc1SC(C(=O)c1ccccc1)c1ccccc1 (stereo not given)	0.18	0.6%	i
Oc1c(C=NCc2ccc(F)cc2)[nH]c2ccc(Br)c(Cl)c12	.	-14%	i
CCOC(=O)Cc1csc(SCC(=O)N2CCN(c3ccc(OC)cc3)CC2)n1	0.07	-5.6%	i
Cc1nc2c(c(=O)n1CCC1=CCCCC1)c1nc3ccccc3nc1n2/N=C/c1ccccc1	.	-7.0%	i
CC1CCN(c2nc3c(c(=O)n(C)c(=O)n3C)n2CCSc2nc3ccccc3o2)CC1	-0.56	1.2%	i
NC(=O)CN1CCN(C(=O)NC2CCCCC2)CC1	-0.41	1.0%	i
Nc1nc(NC(=O)c2cccc(S(=O)(=O)N3CCCCCC3)c2)nc(-c2ccccc2)n1	-0.96	1.9%	i
COC(=O)C(NC(C)=O)(Nc1ccc(Br)cn1)C(F)(F)F (stereo not given)	0.73	3.1%	i
Cc1oc2cc3c(C(=O)N4CCN(C)CC4)c(C)oc3cc2c1C(=O)N1CCN(C)CC1	1.2	2.0%	i
Cc1ccc(OCc2nc(-c3ccc(Cl)cc3)n[nH]2)cc1	.	1.1%	i
Cc1cc(C)n2nc(-c3ccc(F)cc3)nc2n1	.	7.0%	i
O=C1C2=C(SCCS2)C(=O)N1CCCO	0.71	2.9%	i
CCCOc1c(OC)cccc1C1CC(=O)Nc2cc3c(cc21)OCO3 (stereo not given)	0.03	-4.4%	i
Cc1ccc(C(=O)N2CCN(c3cccc(Cl)c3)CC2)cc1C	0.58	0.8%	i
COc1ccc(NC(=O)CNS(=O)(=O)c2cccs2)cc1	0.01	3.2%	i
Cc1cccc(-n2ccnc2SCC(=O)Nc2cc(C)on2)c1	0.22	0.4%	i
N#CC1=C(N)NC(SCC(=O)Nc2ccccc2)=C(C#N)C12CCCCC2	.	2.6%	i
CC(NC(=O)c1ccc2c(c1)OCO2)C1CCCO1 (stereo not given)	2.1	4.0%	i
O=C(CC(c1ccccc1)c1ccco1)N1CCOCC1 (stereo not given)	-1.9	-8.7%	i
CCOC(=O)c1[nH]c2ccccc2c1NC(=O)c1ccco1	-0.88	-0.6%	i
Cc1ccc2cccc(NC(=S)NC(=O)c3c(Br)cnn3C)c2n1	.	-1.8%	i
CC(C)CC(C(=O)NC(=O)NCc1ccccc1)N1C(=O)c2ccccc2C1=O (stereo not given)	.	5.9%	i
COC(=O)CC/C(O)=C1/C(=N)CC(C)(C)CC1=O	.	7.0%	i
CCCCC(=O)Nc1c(O)c2ccccc2[nH]c1=O	-0.23	3.8%	i
COc1ccc(N2CCN(c3ncnc4nc[nH]c34)CC2)cc1	1.7	-0.6%	i
